# Six1-Eya2 inh = inhibitors of human Six1/Eya2 interaction; Q15475+O00167; AlphaScreen GST-Six1/His-Eya2 binding, biochemical; active compounds read low; control for the full effect not named in the record; activity change, % (test concentration not listed); hit rate 0.56% among 360,000; AID 651725; in the data active = activity change below about -65%; inconclusive = about -30% to -65%; inactive = above about -30%; also: % is scaled to controls: 0 for no effect and ±100 for the full control effect
#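 Compounds are tested against tagged Six1 and Eya2 proteins bridged by glutathione donor and nickel acceptor beads; after a one-hour incubation at 37 °C without light, AlphaScreen emission is recorded.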
# D2 ag = human D2 receptor agonism in beta-arrestin assay; P14416; DiscoveRx PathHunter D2 beta-arrestin, luminescence, 90 min; 100% = 57 uM dopamine signal; activation, % (concentration not given with the values); hit rate 0.084% among 360,000; in the data active = activation above about 40%; inconclusive = about 15% to 40%; inactive = below about 15%; also: compound concentration not given in the record; the text of the record calls up to 30% inactive
# Target sequence (P14416 whole entry, looked up): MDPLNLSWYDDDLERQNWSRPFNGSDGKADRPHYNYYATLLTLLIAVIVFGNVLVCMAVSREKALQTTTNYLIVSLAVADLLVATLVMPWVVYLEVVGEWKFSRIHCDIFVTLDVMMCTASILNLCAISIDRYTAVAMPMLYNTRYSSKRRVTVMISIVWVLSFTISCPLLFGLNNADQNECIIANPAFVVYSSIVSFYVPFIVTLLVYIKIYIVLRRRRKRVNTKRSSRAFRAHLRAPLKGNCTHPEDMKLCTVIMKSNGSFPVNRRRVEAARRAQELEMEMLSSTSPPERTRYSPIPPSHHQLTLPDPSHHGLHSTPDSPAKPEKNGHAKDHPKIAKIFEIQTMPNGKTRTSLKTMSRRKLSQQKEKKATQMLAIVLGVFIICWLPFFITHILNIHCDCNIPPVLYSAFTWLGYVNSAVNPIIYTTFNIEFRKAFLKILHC
#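 DiscoveRx PathHunter D2 beta-arrestin cells (2,100/well) attached overnight, then compound-stimulated 90 min at 37 C in HBSS/10 mM HEPES/0.1% Tween-20 buffer; beta-galactosidase complementation read by luminescence after 1 h at ambient temperature. Dopamine 57 uM final (EC100) as control.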
# TRPML1 inh = inhibitors of human TRPML1 channel | Q9GZU1 | TRPML1-inducible cells, Ca2+ dye fluorescence, FDSS; active compounds read low; inhibition of EC80 agonist-evoked calcium signal | activity change, negative = inhibition, % (concentration not given with the values) | hit rate 0.02% among 390,000; in the data active means activity change below about -50%; inconclusive means about -30% to -50%; inactive means above about -30%;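 also: stimulus is agonist 54-4 at its EC80 concentration; % is scaled to controls: 0 for no effect and ±100 for the full control effect; the text of the record puts the active cut at -80%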
# Target sequence (Q9GZU1 whole entry, looked up): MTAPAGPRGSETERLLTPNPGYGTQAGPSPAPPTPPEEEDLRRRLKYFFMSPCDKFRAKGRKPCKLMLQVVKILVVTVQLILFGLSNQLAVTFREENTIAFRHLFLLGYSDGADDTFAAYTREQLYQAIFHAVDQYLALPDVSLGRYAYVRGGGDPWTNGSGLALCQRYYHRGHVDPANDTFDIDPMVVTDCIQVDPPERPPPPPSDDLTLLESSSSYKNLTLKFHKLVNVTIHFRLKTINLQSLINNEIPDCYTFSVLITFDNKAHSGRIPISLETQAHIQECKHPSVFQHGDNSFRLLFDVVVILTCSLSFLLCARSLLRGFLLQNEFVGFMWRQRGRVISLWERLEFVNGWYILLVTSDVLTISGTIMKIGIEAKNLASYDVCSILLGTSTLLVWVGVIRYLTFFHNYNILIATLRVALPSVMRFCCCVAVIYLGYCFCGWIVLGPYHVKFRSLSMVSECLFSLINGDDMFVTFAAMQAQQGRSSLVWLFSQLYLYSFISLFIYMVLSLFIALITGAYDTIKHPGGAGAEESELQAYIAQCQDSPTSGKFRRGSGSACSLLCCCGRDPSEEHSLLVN
#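 Calcium fluorescence in TRPML1-DL cells induced overnight with Tet: a 110 s read after compound pin addition, then a 110 s antagonist read after challenge with 54-4 at 4 uM final (EC80).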
# CtBP-E1A blk = blocks the CtBP interaction with E1A | AlphaScreen GST-E1A/His-CtBP binding, 1536-well; active compounds read low; control for the full effect not named in the record | activity change, % (concentration not given with the values) | hit rate 0.49% among 340,000 | AID 651724; in the data active means activity change below about -65%; inconclusive means about -30% to -65%; inactive means above about -30%; also: % is scaled to controls: 0 for no effect and ±100 for the full control effect
#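 Steps: dispense buffer (Tris pH 8.0, NaCl 300 mM, TCEP 1 mM, BSA, Tween 20); add 5X protein mix (GST-E1A, His-CtBP, 125 nM each); pin 23 nL compound; 2 h at 37 °C, dark; add 5X beads (50 ug/mL); 1 h; read.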
# TRPML1 agonist = agonists of human TRPML1 channel | Q9GZU1 | TRPML1-expressing cells, Ca2+ dye fluorescence, FDSS; host cell line not named in the record; reference of the full effect not given here | activation, % (concentration not given with the values) | hit rate 0.12% among 410,000 | AID 624414; in the data active = activation above about 50%; inconclusive = about 30% to 50%; inactive = below about 30%; also: 0% is about no effect; the text of the record puts the active cut at 80%
#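 Cells: TRPML1-DL, 1X Tet inducer, ~16 h at 37 degrees C/5% CO2. Dye: ABD Ca8 no-wash + quencher, 45-90 min RT. Read: 10 s baseline, compound add, 110 s agonist phase; 54-4 EC80 (4uM final), 110 s antagonist phase.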
# PINK1 expr mod = PINK1 expression modulation; PINK1 immunofluorescence, high-content cytometry, 24 h; Potency, µM (top dose mostly 76.6 µM), inactives show at the top dose activation (PINK1 increase), usual class: activators; hit rate 0.2% among 410,000; AID 624263; active = well fitted activation curve with a large enough effect; inconclusive = small, poorly fitted or top-dose-only effect; inactive = flat fitted curve, though single readings scatter; cell line not stated here;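 also: potency is read from the fitted curve at half-maximal effect; % of control where 0% means no effect; nearly all actives have a fitted effect of over 65% in size; a mitochondrial uncoupler was the plate control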
#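 Compound titrations (5 concentrations, 24 h) on a stable cell line; DMSO and CCCP controls. Endpoint: fixed-cell PINK1 immunofluorescence with mitochondrial, cell and nuclear markers, scanned by microplate cytometer.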
# Numbers without * were called inactive; ? = inconclusive; · = no result given; [ ] = another dose, or the depositor's remark. No enrichment for hits. About 1% of those tested had a hit in this group.
molecule,Six1-Eya2 inh,D2 ag,TRPML1 inh,CtBP-E1A blk,TRPML1 agonist,PINK1 expr mod
Cc1cc(C)c(NC(=O)C2CCN(C(=O)N3CCOc4ccccc43)CC2)c(C)c1,·,·,1,·,-0.5,-0.3%
CCOc1cccc(CNCc2cccnc2)c1OCc1ccccc1,4,-5.1,18,-6,-0.2,0.1%
CC(C)COc1ccc(C2=NC(c3ccncc3)=Nc3ccc(F)cc3N2)cc1,·,·,-24,·,-0.5,-0.4%
O=C(O)C1CCCCC1C(=O)NC1C2CC3CC(C2)CC1C3 (configuration not stated),-4,-3.5,23,6,0.2,1.5%
COc1cc2[nH]c(=S)n(CCN3CCOCC3)c(=O)c2cc1OC,2,-3.2,-3,9,0.4,·
CCN(CC)S(=O)(=O)c1ccc(Cl)c(NC(=O)CSc2cccc[n+]2[O-])c1,4,-3.2,6,-1,-0.4,0.3%
Cc1ccc(NC(=O)CCc2c(C)nc3ncnn3c2C)cc1,-7,2.8,-17,-2,-0.1,·
COc1ccccc1-c1ccc(SCC(=O)NC2CCCCC2)nn1,4,-2.6,16,-7,2.9,-0.4%
COc1ccc2[nH]c(=O)c(CN(C(=O)c3cccc(Cl)c3)c3ccccc3OC)cc2c1,·,·,18,·,1.0,-1.1%
COc1cc2c(cc1OC)C(c1c(Cl)cccc1Cl)=NCC2,9,2.7,·,2,-0.9,3.3%
CCN1C(=O)[C@H]2[C@@H](c3ccc(C)cc3)N3C(=O)N(c4ccc(C)cc4)C(=O)[C@@]3(Cc3ccc(Cl)cc3)[C@H]2C1=O,1,-2.7,-5,2,-0.2,0.6%
CCN(CC)S(=O)(=O)c1cc(NS(=O)(=O)c2cccs2)ccc1C,2,-2.2,9,0,0.3,-0.2%
CCOc1ccc(NC(=O)c2ccc(-c3cccc(Cl)c3C)o2)cc1,·,·,-8,·,0.6,1.3%
Cc1cccc(C)c1NC(=O)CN1CCN(CCCC(c2ccc(F)cc2)c2ccc(F)cc2)CC1,1,-2.4,24,3,6.3,0.4%
CCCCNC(=O)N1CCOCCOCCN(C(=O)NCCCC)CCOCCOCC1,13,-1.1,-1,-4,-0.8,1.3%
Cc1cc(C)cc(CC2CC(=O)N(c3ccc(Cl)cn3)C2=O)c1 (configuration not stated),4,1.2,-5,3,0.8,3.9%[38.3 µM]
O=C1CC(c2ccccc2)CC(O)=C1C=NCc1ccccc1 (configuration not stated),2,-1.8,-17,6,0.6,-7.1%[38.3 µM]
C[C@H](NC(=O)[C@H]1N2C(=O)c3ccccc3C2SC1(C)C)C(=O)NCc1ccncc1 (some centres not stated),-1,-1.0,5,-2,-0.8,1.0%
Cc1ccc(NC(=S)NCc2ccccc2)cc1C,-2,-1.8,10,-3,0.4,-0.5%
CCc1ccc(CN(C(=O)Nc2cccc(Cl)c2)c2ccccn2)cc1,·,·,66,·,4.2,1.0%
COc1ccccc1NC(=O)CN(c1ccc([N+](=O)[O-])cc1)S(=O)(=O)c1ccccc1,-14,-7.5,8,-25,0.4,-1.2%
CCn1nc(C(=O)OCc2c(C)noc2C)c2ccccc2c1=O,0,1.4,-13,1,-0.3,-2.2%
O=C(NCCc1csc2nc(-c3ccccc3F)nn12)c1ccccc1C(F)(F)F,·,·,-12,·,1.8,2.5%
COc1ccc(-c2ccc3c(c2)c(Sc2ccccc2)c(-c2cc(OC)cc(OC)c2)n3C)cc1,0,·,·,-10,0.6,0.3%
Cc1cc(C)n2nc(C(=O)OCC(=O)c3ccc(F)cc3)nc2n1,0,-3.6,18,6,0.2,2.0%
COc1ccc(C2C3=C(CCCC3=O)N(CC(=O)O)C3=C2C(=O)CCC3)cc1,-2,-0.2,28,·,0.7,0.4%
CC(=O)Nc1ccc(S(=O)(=O)/N=C2/NC(=O)/C(=C\c3ccco3)S2)cc1,?,1.3,4,·,-0.4,1.0%
Cc1cc(C)c(C#N)c(N2CCN(CCOc3ccc(Cl)cc3)CC2)n1,-7,2.0,4,11,2.4,·
CCN(CC)CCCNC(=O)CCc1ccccc1,-3,-2.6,2,-6,0.2,-0.4%
CC(OC(=O)c1ccc(Cl)nc1)C(=O)NC1CCCC1 (configuration not stated),-1,-6.2,-4,9,0.2,-0.4%
O=C(CSc1cn(CC(=O)N2CCCCC2)c2ccccc12)NCC1CCCO1 (configuration not stated),0,-6.9,20,-2,0.7,1.2%
CCN1CCN(c2c(S(=O)(=O)c3ccccc3)cnc3ccc(Cl)cc23)CC1,·,·,-2,·,0.2,-1.0%
CC(=O)N(c1ccccc1C)c1ccccc1C,-8,3.0,-2,-15,2.4,0.1%
COC(=O)c1cc(OC)c(OC)cc1NC(=O)CSc1ccccc1,-3,-1.8,-13,-2,1.7,7.4%
O=C(NN=Cc1ccc2c(c1)CCC2)c1ccccc1[N+](=O)[O-],-13,-3.4,15,3,0.8,15%
COc1ccc(OC)c(CN2CCN(C(=O)c3cccs3)CC2)c1,0,49*,-8,-12,-1.4,-4.6%
CCOC(=O)C1CCN(c2c([N+](=O)[O-])c(C(Cl)Cl)nn2-c2ccccc2)CC1,-27,-0.4,2,0,1.1,·
O=C(CN1C(=O)COc2ccc(S(=O)(=O)NC3CCCC3)cc21)NCc1ccccc1Cl,·,·,1,·,1.5,2.5%
CCOC(=O)Nc1ccc2c(c1)N(C(=O)C(C)N1CCCC1)c1ccccc1CC2 (configuration not stated),2,?,-12,11,1.3,·
CCc1ccc(S(=O)(=O)Nc2ccc(-c3ccc4nncn4n3)cc2)s1,-13,1.7,-12,-7,0.1,-0.7%
O=C(CCc1ccccc1)N1CCN(c2ccccc2F)CC1,1,-2.8,-10,-3,0.2,0.5%
CN(c1ccccc1)S(=O)(=O)c1cccc(NC(=O)CSc2nnc(C3CC3)n2C)c1,2,0.8,-3,-11,0.2,-0.8%
Cc1ccccc1CNCCSc1nnnn1C,·,·,-18,·,-0.9,-0.5%
c1cc(CN2CCCCC2)cc(OCCCNc2nc3ccccc3s2)c1,-9,-1.6,15,-8,-0.2,5.1%
CCc1cccc(NC(=O)C2CCCN(S(=O)(=O)c3cccnc3)C2)c1 (configuration not stated),1,-0.8,-3,·,-0.4,0.1%
COc1ccc(-c2nc3cnccn3c2NCc2ccccc2)cc1SC1CCCCC1,3,-2.2,-7,10,0.3,5.3%
COC(=O)c1cc(C)nc2c1c(=O)nc(SCc1ccccc1Cl)n2C1CC1,·,·,48,·,2.5,3.8%
COc1ccc(S(=O)(=O)N2CCC(NC(=O)C3CCCCC3)CC2)cc1,5,-1.9,-13,-14,-0.1,3.6%
Cc1ccc(N(Cc2ccco2)C(=O)c2cccc(S(=O)(=O)N(C)C)c2)cc1,-10,2.0,3,-3,-0.7,-1.5%
COc1ccc(C2CC(=O)Oc3cc4c(cc32)OCO4)cc1 (configuration not stated),-2,0.2,-15,0,1.5,1.5%
Cc1ccc(N2C(=O)NC(NC(=O)C(C)(C)C)(C(F)(F)F)C2=O)cc1C (configuration not stated),20,-0.7,-5,6,0.0,-0.4%
COC(=O)c1cc(NC(=O)Cc2cccs2)cc(C(=O)OC)c1,0,-1.1,·,·,·,-0.1%
Cn1cccc1CNC(=O)Nc1ccc(Cl)cc1,-4,-3.0,-5,0,-0.5,1.2%
CCOC(=O)N1CCN(C(=S)NC(C)(C)C)CC1,-1,-2.9,-8,0,-0.3,-1.3%
CC(=O)NC1C(Oc2cccc(C)c2)OC2COC(c3ccco3)OC2C1O (configuration not stated),1,-2.9,-5,0,-0.2,-0.7%
Cc1cccn2c(=O)c3cc(C(=O)N4CC(C)CC(C)C4)sc3nc12 (configuration not stated),0,-4.5,-16,3,0.7,2.6%

# Rewritten with two lines to a compound: entries from further up.
# Second line of a record – Six1-Eya2 inh, D2 ag, TRPML1 inh, CtBP-E1A blk, TRPML1 agonist, PINK1 expr mod
- CCOC(=O)N1CCN(C(=S)NC(C)(C)C)CC1
  -1, -2.9, -8, 0, -0.3, -1.3%
- CC(=O)NC1C(Oc2cccc(C)c2)OC2COC(c3ccco3)OC2C1O (configuration not stated)
  1, -2.9, -5, 0, -0.2, -0.7%

# (next part)
molecule,Six1-Eya2 inh,D2 ag,TRPML1 inh,CtBP-E1A blk,TRPML1 agonist,PINK1 expr mod
CCOc1ncccc1C(=O)NCCc1ccc(OC)cc1,-1,-0.9,6,0,-0.3,6.4%
CN(C)C(=O)C1Cc2ccccc2CN1S(=O)(=O)c1ccc(F)cc1 (configuration not stated),1,-0.4,-12,·,-0.7,2.5%
O=C(O)c1ccccc1C(=O)NC1CCN(c2nccc(C(F)(F)F)n2)CC1,0,-2.2,11,7,-0.5,-1.0%
NC(=O)c1ccc(NC(=O)CSc2cn(CC(=O)N3CCOCC3)c3ccccc23)cc1,1,4.2,9,·,-0.5,1.1%
COC(=O)CSc1nc(-c2ccc(C)cc2)c2c(c1C#N)CCCC2,23,-2.8,61,26,3.0,-0.8%
CC(=O)c1cc(C(C)=O)c(C)nc1C,13,-0.5,20,-9,-0.2,0.2%
COc1ccc(-n2c(=O)c3ccccc3n(Cc3cccc(C)c3)c2=O)cc1,·,·,-10,·,-1.2,1.5%
O=C(COC(=O)c1cccnc1Cl)c1ccc(F)cc1,2,-3.7,-15,5,0.0,-0.3%
Cc1cc(C(=O)NCC(=O)O)c(C)o1,3,-1.7,4,2,-0.1,·
COc1ccccc1NC(=S)N1CCN(Cc2ccccc2)CC1,-5,-2.5,3,-18,-1.1,-2.5%
Cc1ccc(-n2nc3c(N4CCC(C(=O)N5CCC(C)CC5)CC4)nnc(C)c3c2C)cc1,·,·,17,·,4.2,-0.5%
CC1CN(c2ccc([N+](=O)[O-])cc2Cl)CCN1S(C)(=O)=O (configuration not stated),-11,12,·,-21,·,-0.5%
COc1ccccc1NC(=O)CCCC(=O)OCC(=O)c1ccc(F)cc1,7,1.4,4,5,0.4,-1.0%
O=C(CSC1=NCCS1)NC1CCCCC1,-5,0.6,-16,-1,1.5,-1.7%
CCCOc1ccccc1OCC(=O)N1CCN(S(=O)(=O)c2ccc(Cl)cc2)CC1,1,-5.0,-3,3,0.0,-1.8%
C/C(=N\OCC(=O)Nc1ccccc1C(C)(C)C)c1ccc2c(c1)OCCO2,3,1.2,32,10,3.4,-0.3%
CN(Cc1cnn(C)c1)Cc1nc(C(c2ccccc2)c2ccccc2)no1,-25,0.3,-8,-5,1.0,2.3%
COCCCNCC(=O)Nc1ccc(OC(F)(F)F)cc1,2,-5.0,2,14,-0.1,4.0%
CCCn1c(CCC(=O)O)nc2cc(S(=O)(=O)N(CC)CC)ccc21,7,-0.8,24,4,-0.3,1.5%
CCc1ccc(C2=NN(CCC(=O)NCCc3ccc(OC)c(OC)c3)C(=O)CC2)cc1,·,·,-3,·,1.2,1.7%
OCC[C@H]1C[C@H](O)[C@@H](O)[C@@]2(Cc3ccccc3CCO2)O1,6,-1.5,9,3,-0.1,-1.0%

# From PubChem
